Ecoli growth = blocks Escherichia coli growth; OD600, 23 h; hits give low values; hit rate 0.21% among 330,000; OD600 absorbance (concentration not given with the values);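 active = OD600 absorbance below the run mean of sample wells minus 3.6 SD, in any replicate, cut at about 0.56 in these data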;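 note: stock transfer was 300 nL into about 60 µL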
UCH37 DUB inh = human UCH37 deubiquitinating enzyme inhibition; purified proteasome/UCH37, Ub-AMC cleavage fluorescence; inhibition, % (no concentration beside the values); hit rate 0.33% among 330,000;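 active = mean of two replicates above 20%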;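 note: 0% = compound-free wells with enzyme and 100% = wells lacking proteasome; stock transfer was 100 nL into about 20 µL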
Target sequence (Q9Y5K5 whole entry, looked up): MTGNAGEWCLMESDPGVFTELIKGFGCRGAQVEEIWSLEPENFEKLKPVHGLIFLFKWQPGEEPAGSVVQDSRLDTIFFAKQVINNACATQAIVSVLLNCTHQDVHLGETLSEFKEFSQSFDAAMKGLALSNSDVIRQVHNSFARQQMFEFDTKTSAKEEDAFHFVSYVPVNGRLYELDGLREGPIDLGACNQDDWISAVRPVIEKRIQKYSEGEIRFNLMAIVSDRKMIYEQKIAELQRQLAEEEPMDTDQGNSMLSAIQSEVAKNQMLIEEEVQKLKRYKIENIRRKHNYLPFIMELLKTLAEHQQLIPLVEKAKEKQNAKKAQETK
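Schedule: 30 min plus 25 min, room temperature / Material: human UCH37 within purified proteasomes / Technique: AMC fluorescence intensity at 355/460 nm / Buffer or medium: pH 7.4 Tris-HCl (50 mM) with ovalbumin, ATP-MgCl2, DTT / Controls: wells without proteasome as full block, compound-free enzyme plus substrate as uninhibited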
HNF4A DNA FP = change in binding of human HNF4 alpha to DNA; hit rate 0.3% among 360,000; AID 1224865; activity change, % at 10 µM; HNF4a-FITC DNA binding, fluorescence polarization, 1 h; in the data active = activity change above about 30%, passing the limit was not always enough;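 note: controls were the assay level and a saturating level of protein; the project sought stronger binding though the title names inhibitors; some compounds called inactive have numbers as strong as hits; positive values seem to mean higher polarization but the record does not say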
Target sequence (P41235 whole entry, looked up): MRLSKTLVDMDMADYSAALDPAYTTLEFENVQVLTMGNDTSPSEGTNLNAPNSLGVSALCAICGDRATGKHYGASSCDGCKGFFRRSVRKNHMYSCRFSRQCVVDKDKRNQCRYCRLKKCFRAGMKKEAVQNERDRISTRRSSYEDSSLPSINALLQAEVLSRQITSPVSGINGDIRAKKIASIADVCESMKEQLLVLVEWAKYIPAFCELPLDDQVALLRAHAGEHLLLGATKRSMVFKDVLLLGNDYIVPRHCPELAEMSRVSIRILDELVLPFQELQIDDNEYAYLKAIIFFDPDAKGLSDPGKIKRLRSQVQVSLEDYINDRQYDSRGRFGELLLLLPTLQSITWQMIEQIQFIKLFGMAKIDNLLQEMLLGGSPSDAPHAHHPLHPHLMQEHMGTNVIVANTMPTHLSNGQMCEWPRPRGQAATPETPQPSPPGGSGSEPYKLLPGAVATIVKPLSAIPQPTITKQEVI
AF4-AF9 inh = inhibitors of human MLL-AF4/AF9 interaction | P42568 | AlphaScreen, biotin-AF4 peptide binding to FLAG-AF9 | inhibition, % at 10 µM | hit rate 0.47% among 350,000;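 active = every replicate reaching a set inhibition limit, whatever the replicate mean, cut at about 25% in these data; inconclusive = mean inhibition reaches that limit but some replicates miss it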;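 note: 0% = plate neutral control median and 100% = total signal loss; the record names both 10 and 1 µM as test concentration; the first replicate is given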
Vif TR-FRET = HIV-1 Vif–A3G interaction blockers – biochemical, TR-FRET, GST-Vif 1-94, biotin-A3G peptide, dose response retest, primary screen (AID 1117319); TR-FRET GST-Vif / biotin-A3G peptide binding; higher % means a stronger effect; test concentration not given here; strong numbers were not always called active; hit rate 0.57% among 260,000; inhibition, %; hits with a dose series show IC50 in µM;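 active = above the screen mean plus three standard deviations and confirmed in dose response; inconclusive = results disagree or hit not tested in dose response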;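 note: Vif residues 1-94 fused to GST binding biotinylated APOBEC3G peptide 110-148; 0% = full assay without inhibitor and 100% = GST in place of GST-Vif; retest series ran down from 100 µM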
RanGTP-Imp inh = disruptors of Ran-importin-beta complex formation – biochemical, FRET, CFP-Ran, YFP-importin-beta, homogeneous, primary screen; cell-free CFP-Ran/YFP-importin-beta FRET ratio; inhibition, % (no concentration beside the values); hit rate 1.1% among 300,000; AID 2216;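 active = most replicates above 15%; inconclusive = exactly half above 15%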;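 note: 0% = DMSO wells and 100% = Ran loaded with GDP instead of GTP; wells of about 40 µL received 100 nL stock; the first replicate is given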
FGF22 binding = FGF22 (human) thermal shift binding; Q9HCT0; recombinant FGF22 thermal shift, SYPRO orange fluorescence; percent of sucrose octasulfate shift, DMSO zero; calls only at 9.99 µM; hit rate 1.5% among 340,000; AID 651658;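 active = melting point raised past a set limit in the mean and every replicate; inconclusive = no clear call; three in four hits are not shown here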
Target sequence (Q9HCT0 whole entry, looked up): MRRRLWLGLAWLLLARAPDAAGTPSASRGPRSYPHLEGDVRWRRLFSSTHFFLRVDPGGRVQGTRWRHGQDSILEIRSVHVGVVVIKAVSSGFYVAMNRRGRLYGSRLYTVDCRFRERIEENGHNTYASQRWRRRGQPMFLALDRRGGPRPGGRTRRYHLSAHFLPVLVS
Active calls of the source: *; i = inactive; ? = inconclusive; nt = not tested or not shown; & = joins results of further samples. Some of the compounds tested; rates above refer to the full screens.

Fields: FGF22 binding	Vif TR-FRET	HNF4A DNA FP	AF4-AF9 inh	RanGTP-Imp inh	UCH37 DUB inh	Ecoli growth
- COc1nc(NCc2ccc(Cl)cc2)nc(OC)n1
 : nt	0%	-0.2	nt	-4.1	-1.1	0.66
- CCCC(C)NS(=O)(=O)c1ccccc1 (stereo unspecified)
 : nt	8%	2.8	nt	-1.3	-0.4	0.7
- CC1(C(=O)NS(=O)(=O)c2cccc(Cl)c2)CCN1C(=O)Cc1ccccc1 (stereo unspecified)
 : i	nt	2.8	-5.4	nt	nt	nt
- CCOC(=O)C1=CCN(S(=O)(=O)c2cccc(Cl)c2)C1c1cccc(C)c1 (stereo unspecified)
 : i	nt	2.5	-2.0	nt	nt	nt
- C/C(CCc1ccco1)=N\NC(=O)CNc1cccc2ccccc12
 : i	?	-0.7	3.7	?	nt	nt
- O=S(=O)(c1cccs1)N1CCCCC1
 : i	nt	-0.6	-1.7	nt	nt	nt
- O=C(O)c1ccc(/C=N/NC(=O)c2cc3c(ccc4ccccc43)o2)cc1
 : i	7%	-4.6	-7.4	-2.4	nt	nt
- O=C(CCN1C(=O)C2C3CCC(C3)C2C1=O)OCC(=O)c1ccc(Br)cc1 (stereo unspecified)
 : i	nt	-4.2	-0.8	0.1	4.7	0.64
- CNC(=O)C1Cc2ccccc2CN1S(=O)(=O)c1cccs1 (stereo unspecified)
 : nt	7%	-1.6	nt	2.4	4.6	0.71
- C=CCN(CC=C)C(=O)CCc1nnc(CCc2c[nH]c3ccccc23)o1
 : i	nt	3.6	0.7	-4.7	-1.3	0.69
- Cc1oc(CC(C)C)c(CN2CCCC2)c1C(=O)O
 : nt	?	3.9	nt	-2.3	-1.6	0.69
- Cc1cc(NC(=O)CSc2c[nH]c3ccccc23)no1
 : i	2%	-2.4	-3.2	2.4	3.8	0.72
- C=CCNC(=S)NNC(=O)c1ccc(OCC)cc1
 : nt	2%	0.7	nt	-1.5	5.3	0.65
- O=C(COc1cc2oc(=O)c3c(c2cc1Cl)CCC3)Nc1ccc(CN2CCOCC2)cc1
 : i	nt	1.9	-0.8	5.3	-4.5	0.64
- COc1ccc(/C=N/NC(=O)CCCCCNC(=O)c2ccccc2)cc1
 : i	0%	3.8	-1.0	1.9	nt	nt
- Cc1ccc(N2CC(C(=O)OCC(=O)Nc3ccc(F)cc3F)CC2=O)cc1 (stereo unspecified)
 : i	-13%	-2.6	-0.4	nt	0.0	0.63
- COc1cccc(OCc2nnc(SCC(=O)OCc3ccccc3)o2)c1
 : nt	0%&-4%	-1.3	nt	-2.6	2.3	0.73
- Cc1ccnc(NS(=O)(=O)c2ccc(NC(=O)c3cccc(Cl)c3)cc2)n1
 : i	-2%	3.9	-1.7	nt	nt	nt
- COc1ccc2cc(CN(CC3CCCO3)C(=O)Nc3ccccc3)c(=O)[nH]c2c1 (stereo unspecified)
 : i	12%	-3.6	0.2	nt	1.7	0.66
- CCOC(=O)c1sc(=S)n(-c2ccc(Cl)cc2)c1C
 : nt	16%	-0.6	nt	-4.4	2.1	0.68
- CC(=NNC(=S)N1CCN(C2CCCCCC2)CC1)c1ccccn1
 : i	-4%	11	46*	nt	nt	nt
- Cc1nn(CC(=O)Nc2ccc(Cl)cn2)c(C)c1Br
 : nt	5%	-2.3	nt	0.0	2.9	0.67
- COc1ccc(S(=O)(=O)N(C)CC(=O)O)c2ccccc12
 : nt	14%	-5.3	nt	0.1	3.6	0.68
- CSCCC(NS(=O)(=O)/C=C/c1ccccc1)C(=O)NCCc1ccc(S(N)(=O)=O)cc1 (stereo unspecified)
 : i	16%	6.4	-2.2	-0.8	2.5	0.67
- CN(C)c1cccc(NC(=O)C2(C)CC2(Cl)Cl)c1 (stereo unspecified)
 : nt	0%	-3.4	nt	-0.7	4.1	0.68
- Cc1cccc(NC(=O)Cn2nnc(C(=O)NCc3cccs3)c2N)c1C
 : nt	-9%	5.0	nt	-4.7	0.8	0.7
- COC(=O)c1ccc(C(=O)OC)c(NC(=O)C(C)C)c1
 : i	nt	5.0	-0.8	1.8	-7.8	0.69
- C=CCn1c(=O)c2ccccc2n2c(SC(C)C(N)=O)nnc12 (stereo unspecified)
 : i	18%	1.7	1.2	-1.8	0.3	0.7
- CS(=O)(=O)c1ccc(C(=O)OCc2nnc(-c3ccc(Cl)cc3)o2)cc1[N+](=O)[O-]
 : nt	24%	5.0	nt	1.0	8.5	0.68
- Cc1ccc(NC(=O)CNC(=O)c2ccc(C(C)(C)C)cc2)cc1S(=O)(=O)N1CCOCC1
 : i	1%	2.2	-0.4	nt	0.3	0.68
- CC1=Nc2cccc([N+](=O)[O-])c2NC(=O)C1
 : i	11%	1.6	-0.5	nt	6.6	0.72
- COc1cccc(OC)c1OCCCNC1CCCC1
 : i	nt	-0.5	-1.2	1.7	1.4	0.64
- CC(NC(=O)C(=O)N/N=C\c1ccc([N+](=O)[O-])cc1)c1ccccc1 (stereo unspecified)
 : i	-2%	0.4	-0.4	-3.3	nt	nt
- CC(=O)c1ccccc1NC(=O)CSc1nc2ccccc2c(=O)n1CCCN1CCOCC1
 : i	0%	-0.7	-4.3	nt	3.9	0.7
- Cc1ccc(C(=O)N2CCN(S(=O)(=O)c3ccccc3[N+](=O)[O-])CC2)o1
 : i	29%	-3.0	-0.3	-1.6	2.9	0.67
- C#Cc1ccc(NC(=O)C2(C)CCN2C(=O)Cc2ccc(-c3ccccc3)cc2)cc1 (stereo unspecified)
 : i	nt	2.8	-6.5	nt	nt	nt
- Cc1ccccc1-c1noc(CNC(=O)COc2ccccc2)n1
 : i	2%	5.2	-1.7	-0.4	5.4	0.69
- CS(=O)(=O)N1CCC(C(=O)Nc2cc(Cl)cc(Cl)c2)CC1
 : i	-1%	-1.5	-0.9	-0.5	3.5	0.65
- CCOC(=O)C1=C(C)N(CC(C)C)C(=O)/C1=C\c1cccs1
 : i	17%	0.3	0.5	-1.4	6.1	0.67
- CCN(CC)CC(=O)Nc1ccc(C)cc1Br
 : nt	2%	-3.0	nt	-1.4	7.2	0.78
- COCCn1c(=NC(=O)c2cc(Cl)sc2Cl)sc2cc(S(N)(=O)=O)ccc21
 : nt	19%	7.7	nt	4.6	-10	0.67
- OC[C@@H]1CN(Cc2ccc(F)cc2)C[C@H](n2cnc3c(NC4CC4)ncnc32)O1
 : i	nt	-0.7	-0.7	nt	nt	nt
- CC[C@]12CCCN3CCc4c(n(c5ccccc45)C(=O)C1)[C@@H]32
 : i	nt	0.6	2.5	nt	1.9	nt
- Cc1ccc(OCC(=O)NNC(=O)c2cc3ccccc3o2)cc1
 : nt	2%	-5.8	nt	0.3	-0.8	0.76
- Cc1ccc(C)c(S(=O)(=O)Nc2cc3c4c(c2)CCC(=O)N4CCC3)c1
 : i	-3%	0.1	-6.2	3.5	0.7	0.66
- CN=C(Nc1cc(C)nn1-c1ccccc1)c1ccccc1F
 : i	-2%	2.6	-1.9	-2.1	1.9	0.7
- CCCc1ccc(S(=O)(=O)N2CCN(C(C)C(=O)NCc3ccc(OC)cc3)CC2)cc1 (stereo unspecified)
 : i	?	-0.4	0.6	nt	0.8	0.65
- Cc1cc(-c2n[nH]c(=S)n2/N=C/c2cccc(O)c2)n[nH]1
 : i	-6%	0.0	-6.1	-0.1	nt	nt
- Cc1nn(-c2ccccc2)c2ncc(C(=O)c3cc(Cl)ccc3O)cc12
 : nt	2%	4.5	nt	-2.9	2.7	0.73
- CN(C)C(=O)c1ccc(-c2cc(C(F)(F)F)nn2C)s1
 : i	-9%	-0.9	2.4	0.2	2.3	0.65

(cont.)
Fields: FGF22 binding	Vif TR-FRET	HNF4A DNA FP	AF4-AF9 inh	RanGTP-Imp inh	UCH37 DUB inh	Ecoli growth
- COc1ccc2c(C(=O)c3ccc(C)cc3)n(Cc3ccc(C(N)=O)cc3)[n+]([O-])c2c1
 : i	nt	-8.7	6.2	nt	0.1	0.68
- CC(=O)c1c(C)[nH]c(C(=O)CN2C(=O)NC(C)(C)C2=O)c1C
 : i	-3%	-2.4	0.6	4.9	-0.3	0.68
- CCOc1ccc(N(CC(=O)Nc2ccc(OC)cc2)S(=O)(=O)c2c(C)noc2C)cc1
 : i	0%	-0.9	-3.2	0.3	4.1	0.69
- c1ccc(-c2n[nH]c3ccccc23)cc1
 : i	-2%	-1.6	1.5	?	5.1	0.69
- COc1ccc2c(C)cc(Sc3nnnn3-c3ccccc3)nc2c1
 : nt	nt	1.2	nt	0.9	2.7	0.72
- Cc1ccc(OCC(=O)NC(=S)Nc2ccc(Br)c(C)n2)cc1
 : nt	5%	1.6	nt	-0.4	2.6	0.72
- COC(=O)c1ccc(OS(=O)(=O)c2ccc(NC(C)=O)cc2)cc1
 : i	nt	-2.2	-3.2	-1.7	3.3	0.72
- COc1cccc(CNC(=O)c2ccccc2C(=O)NC(C)(C)C(=O)NCc2cccc(OC)c2)c1
 : i	-5%	4.0	-0.3	0.2	-0.5	0.63
- O=C(NNc1c(F)c(F)cc(F)c1F)c1cc2ccccc2oc1=O
 : i	21%	2.3	-1.6	?	5.5	0.73
- CCCCn1c(=O)c(CCC(=O)OCC(=O)Nc2ccc(F)c(Cl)c2)nc2ccccc21
 : nt	nt	2.7	nt	?	-1.5	0.65
- CCOc1ccccc1OCC(=O)NC1CCCCC1
 : nt	-1%	4.3	nt	0.7	-0.7	0.72
- Cc1ccc(S(=O)(=O)NCC(=O)N(CC(=O)NC2CCCC2)c2ccc3c(c2)OCCO3)cc1
 : nt	5%	0.2	nt	-1.2	4.8	0.7
- O=C(NC1CC1)c1cc(Cl)nc2ccccc12
 : i	-1%	0.0	0.5	nt	2.3	0.67
- O=S1(=O)CCC(NC(=S)N2CCOCC2)C1 (stereo unspecified)
 : i	7%	-0.2	-0.6	2.7	1.3	0.75
- Cn1c(Cn2c(=O)sc3ccccc32)nnc1SCC(=O)Nc1ccccc1F
 : i	?	-0.8	1.4	-3.2	3.6	0.75
- O=C(NC1=NCCS1)c1cccs1
 : nt	-1%	-1.3	nt	-0.7	5.6	0.81
- C[C@@H]1COc2cccc(N3CCSCC3)c2S(=O)(=O)N1
 : i	nt	-3.2	-1.9	nt	nt	nt
- CS(=O)(=O)N1CCc2cc(C(=O)Nc3ccc(O)cc3)ccc21
 : i	nt	0.9	-1.5	-1.9	3.9	0.66
- COC(=O)C1CN(C(=O)COc2ccccc2)c2ccccc2O1 (stereo unspecified)
 : i	1%	1.8	-0.4	3.1	5.8	0.64
- COc1ccc(/C=N/Nc2nn3cnnc3c3ccccc23)cc1
 : i	-4%	-2.5	-1.5	-1.1	nt	nt

Compound activity (PubChem)
